Bioassay records (PubChem BioAssay)
MLL AF4-AF9 inh = inhibitors of human MLL-AF4/AF9 interaction; AlphaScreen, biotin-AF4 peptide binding to FLAG-AF9; inhibition, % at 10 µM; P42568; 0.47% of 350,000 active;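 active means every replicate reaching a set inhibition limit, whatever the replicate mean, cut at about 25% in these data; inconclusive means mean inhibition reaches that limit but some replicates miss it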;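 further: 0% = plate neutral control median and 100% = total signal loss; the record names both 10 and 1 µM as test concentration; the first replicate is given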
Calb FLC = affects C. albicans growth with fluconazole. C. albicans CaCi-2 (fluconazole-resistant clinical isolate) + fluconazole, Alamar Blue growth, 48 h. growth inhibition, % (concentration not given with the values). 0.57% of 300,000 active;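 active means most replicates above 75%; inconclusive means exactly half above 75%; inactive means most below 75%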;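 further: all wells also contain fluconazole at 8 µg/ml as a sub-toxic cotreatment; 0% = median of DMSO wells and 100% = median of geldanamycin control wells; wells of about 8 µL received 7.5 nL stock; the first replicate is given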
RanGTP-Imp inh = inhibitors of RanGTP-importin-beta interaction, primary screen, biochemical, FRET, CFP-Ran, YFP-importin-beta, homogeneous; cell-free CFP-Ran/YFP-importin-beta FRET ratio; inhibition, % (concentration not given with the values); 1.1% of 300,000 active;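 active means most replicates above 15%; inconclusive means exactly half above 15%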;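 further: 0% = DMSO wells and 100% = Ran loaded with GDP instead of GTP; wells of about 40 µL received 100 nL stock; the first replicate is given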
Beta cell apopt = beta cell apoptosis inhibition. protection from apoptosis, % (concentration not given with the values). INS-1E cytokine-induced death, ATP luminescence, 48 h; percent of positive-control rescue, neutral wells zero. 0.8% of 300,000 active;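 active means all replicates at 75% or more, or half of them and the mean; inconclusive means half reach 75% but not the mean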;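 further: 0% = cytokine-treated negative control wells and 100% = positive control rescue; higher means more ATP so stronger rescue from cytokine killing; wells of about 40 µL received 100 nL stock; the first replicate is given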
A1 inh = inhibitors of the anti-apoptotic protein A1, read as caspase activation. MEF A1-2A-BIM cells, Caspase-Glo 3/7 luminescence, 3 h; percent of clofoctol response, vehicle zero. caspase activation, % (test concentration not listed). 0.066% of 330,000 active;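 active means over half of replicate activation scores above 10%, or exactly half above 10 with the replicate mean above 10; inconclusive means replicate mean below 10 yet half the replicates above 10; inactive means over half of replicates below 10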;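 further: wells of about 30 µL received 50 nL stock; many hits fall short of the cut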
LANA-H2A inh = blocks KSHV LANA binding to histone H2A/H2B; inhibition, % (no concentration beside the values); cell-free LANA-H2A/H2B peptide, fluorescence polarization; Q9QR71; 0.6% of 320,000 active; in the data active means inhibition mostly above about 10%, no sharp cut-off; inactive means mostly below about 6.7%;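 further: stock transfer was 7.5 nL into about 10 µL; 0% = median of vehicle wells and 100% = median of positive control wells; one replicate is shown; the record names a cut of 25% in any replicate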
Target sequence (Q9QR71 whole entry, looked up): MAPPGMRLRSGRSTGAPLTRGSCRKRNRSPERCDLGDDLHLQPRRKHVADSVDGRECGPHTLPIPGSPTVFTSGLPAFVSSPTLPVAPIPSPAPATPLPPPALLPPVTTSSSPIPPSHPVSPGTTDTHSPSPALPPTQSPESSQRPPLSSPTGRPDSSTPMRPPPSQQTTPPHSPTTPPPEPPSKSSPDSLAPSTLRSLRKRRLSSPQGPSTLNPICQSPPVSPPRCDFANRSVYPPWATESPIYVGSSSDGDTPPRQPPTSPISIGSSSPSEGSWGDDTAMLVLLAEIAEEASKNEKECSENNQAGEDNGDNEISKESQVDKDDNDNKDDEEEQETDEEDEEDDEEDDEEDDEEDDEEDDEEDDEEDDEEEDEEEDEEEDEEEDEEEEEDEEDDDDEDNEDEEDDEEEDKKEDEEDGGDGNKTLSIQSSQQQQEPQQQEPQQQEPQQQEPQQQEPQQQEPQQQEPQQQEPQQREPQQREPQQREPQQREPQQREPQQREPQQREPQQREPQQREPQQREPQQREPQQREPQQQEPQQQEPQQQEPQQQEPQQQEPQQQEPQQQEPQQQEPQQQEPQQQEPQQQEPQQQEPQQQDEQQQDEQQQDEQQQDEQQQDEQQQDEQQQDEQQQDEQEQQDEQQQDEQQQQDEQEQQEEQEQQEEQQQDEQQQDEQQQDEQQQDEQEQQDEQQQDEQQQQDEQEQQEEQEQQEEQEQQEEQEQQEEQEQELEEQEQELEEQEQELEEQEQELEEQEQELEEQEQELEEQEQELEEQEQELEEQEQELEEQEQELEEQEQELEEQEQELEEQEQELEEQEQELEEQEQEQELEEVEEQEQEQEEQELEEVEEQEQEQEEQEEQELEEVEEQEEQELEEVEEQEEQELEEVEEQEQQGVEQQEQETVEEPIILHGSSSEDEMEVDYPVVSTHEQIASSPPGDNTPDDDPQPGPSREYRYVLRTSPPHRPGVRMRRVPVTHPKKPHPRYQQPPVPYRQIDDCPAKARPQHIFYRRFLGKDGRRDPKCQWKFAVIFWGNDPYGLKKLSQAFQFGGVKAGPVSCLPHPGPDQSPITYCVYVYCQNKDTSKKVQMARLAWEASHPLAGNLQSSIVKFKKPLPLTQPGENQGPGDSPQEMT
Vif A3G = inhibitors of Vif binding to APOBEC3G peptide, primary screen, biochemical, TR-FRET, GST-Vif 1-94, biotin-A3G peptide, dose response retest (AID 1117319); TR-FRET GST-Vif / biotin-A3G peptide binding; higher % means a stronger effect; test concentration not given here; strong numbers were not always called active; inhibition, %, or IC50 in µM where a hit was titrated; 0.57% of 260,000 active;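 active means above the screen mean plus three standard deviations and confirmed in dose response; inconclusive means results disagree or hit not tested in dose response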;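 further: Vif residues 1-94 fused to GST binding biotinylated APOBEC3G peptide 110-148; 0% = full assay without inhibitor and 100% = GST in place of GST-Vif; retest series ran down from 100 µM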
T cruzi repl = blocks replication of Trypanosoma cruzi. AID 1885. 1.4% of 300,000 active. inhibition, % (concentration not given with the values). T. cruzi beta-gal in NIH3T3, luminescence, 90 h;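 active means mean inhibition across valid replicates above about 55%, limit read from the data; inconclusive means mean below that limit but half or more replicates reach it; inactive means mean below it, under half of replicates reach it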;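 further: signal also drops with host cell toxicity which is not excluded here; 0% = plate median of DMSO wells and 100% = zero luminescence signal; higher percent means less beta-gal luminescence so fewer parasites; stock transfer was 50 nL into about 50 µL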
* hit, by the source's call; ? = inconclusive; . = no result given; & = joins results of further samples.

mol | MLL AF4-AF9 inh | Calb FLC | RanGTP-Imp inh | Beta cell apopt | A1 inh | LANA-H2A inh | Vif A3G | T cruzi repl
O=C(O)c1ccc(Cl)cc1Nc1nc2cc(Cl)ccc2o1 | -0.5 | 6 | -2.0 | -4 | 0.3 | 3.9 | -1% | 0
Cc1c(/C=C/C(=O)c2ccc(Cl)s2)cnn1C | . | -14 | ? | -12 | 0.9 | -1.8 | . | -4
CCOC(=O)N1CCN(C(=O)CSc2nnc(-c3cccs3)o2)CC1 | -2.9 | -2 | -0.1 | -6 | 0.0 | 3.6 | 8% | 2
CCOC(=O)C1(CCOc2ccccc2)CCN(Cc2ccc(O)c(OC)c2)CC1 | 6.0 | 36 | -0.3 | . | 1.7 | -6.4 | . | -3
CCOc1ccc(C(=O)Nc2cc(-c3nc4ccccc4[nH]3)ccc2Cl)cc1[N+](=O)[O-] | -0.3 | -6 | ? | 10 | -1.5 | 0.2 | 3% | 37
COc1ccc(S(=O)(=O)NC(CC(C)C)C(=O)NC(C)c2cccs2)cc1 (stereo not given) | -3.2 | . | . | 12 | -1.4 | -7.8 | ? | .
O=C(Nc1ccc(C(=O)O)cc1)/C(=C\c1ccc2c(c1)OCO2)NC(=O)c1ccccc1 | -1.9 | 11 | 2.8 | -9 | 0.2 | -1.9 | 27% | -5
O=C(Nc1cccc2ccccc12)/C(=C\c1cccc([N+](=O)[O-])c1)NC(=O)c1cccs1 | 3.3 | 3 | 2.7 | 2 | -0.5 | 0.9 | -3% | 29
COc1ccccc1CC(=O)Nc1ccc(S(=O)(=O)N2CCOCC2)cc1 | -2.4 | 4 | 4.5 | -2 | 0.3 | 0.5 | . | -14
Cc1ccc2nc3c(cc2c1)c(NC(=O)c1cccnc1)nn3C | . | 0 | 29* | -13 | 0.5 | -7.0 | 7% | -4
CCOC(=O)/C(C(=O)Nc1ccccc1Cl)=C1/NC(C)(C)Cc2ccccc21 | 9.2 | 6 | 3.3 | -3 | 0.6 | 0.4 | -3% | -1
O=C(CSc1nccn(-c2ccc(Br)cc2)c1=O)Nc1ccccc1F | -7.1 | -2 | -0.2 | -7 | 0.3 | . | 2% | -2
O=C1CCc2cc(S(=O)(=O)Nc3ccccc3)ccc2N1 | 2.7 | . | . | 1 | 0.7 | 2.5 | 23% | .
O=C(COC(=O)C1COc2ccccc2O1)NC(=O)NC1CCCCC1 (stereo not given) | . | -5 | -0.4 | -2 | 0.6 | -3.8 | 3% | -7
CN(c1ccc(O)cc1)c1nc(O)c(C2=c3ccccc3=NC2=O)s1 | -3.1 | 3 | 2.6 | -5 | 0.0 | 3.3 | . | 28
COC(=O)CSc1ccc(S(=O)(=O)N2CCOCC2)cc1[N+](=O)[O-] | 12 | 9 | -0.9 | -6 | 0.0 | -4.9 | 2% | -2
Cc1ccc(C(=O)CN(CCCC(N)=O)S(=O)(=O)c2ccc([N+](=O)[O-])cc2)cc1 | -12 | . | . | -3 | 0.1 | 1.5 | . | .
CC1CCCCC1NC(=O)CN1C(=O)CSc2cc(S(=O)(=O)N3CCCCCC3)ccc21 (stereo not given) | -6.7 | 3 | 0.2 | 3 | 0.7 | . | . | -1
CC(CCOS(N)(=O)=O)c1ccccc1 (stereo not given) | . | -8 | -0.8 | -5 | 0.6 | -1.3 | . | -7
COc1cc(NC(C)=O)c2ncccc2c1[N+](=O)[O-] | -5.6 | 2 | -0.3 | -2 | -1.7 | 7.4 | 0% | -5
Cc1ccccc1C(=O)c1c[nH]c(C(N)=O)c1 | . | -16 | -2.3 | -3 | 0.4 | 1.1 | -3% | -20
CCP(=O)(CC)C(C)(C)CP(=O)(c1ccccc1)c1ccccc1 | 2.9 | 14 | 3.8 | -4 | 0.0 | 1.9 | -4% | 8
C/C(CC(=O)Nc1ccc(Cl)cc1Cl)=N\NC(=O)C(=O)N1CCCC1 | -2.0 | -15 | 0.0 | -3 | -0.1 | 0.6 | 14% | 0
COC(=O)c1sc(N2C(=O)C(O)=C(C(=O)c3ccc(C)o3)C2c2ccc([N+](=O)[O-])cc2)nc1C (stereo not given) | 4.1 | -1 | -3.4 | -2 | -0.7 | -6.0 | . | -3
Fc1ccc2c(c1)C(c1ccncc1)=NNC(c1ccc(Cl)cc1)=N2 | . | -6 | -2.4 | . | 1.0 | -3.5 | 2% | 44

Part of the list above, as labelled records.
CCOc1ccc(C(=O)Nc2cc(-c3nc4ccccc4[nH]3)ccc2Cl)cc1[N+](=O)[O-]
  MLL AF4-AF9 inh: -0.3	Calb FLC: -6	RanGTP-Imp inh: ?	Beta cell apopt: 10	A1 inh: -1.5	LANA-H2A inh: 0.2	Vif A3G: 3%	T cruzi repl: 37
Cc1ccccc1C(=O)c1c[nH]c(C(N)=O)c1
  MLL AF4-AF9 inh: .	Calb FLC: -16	RanGTP-Imp inh: -2.3	Beta cell apopt: -3	A1 inh: 0.4	LANA-H2A inh: 1.1	Vif A3G: -3%	T cruzi repl: -20
CCOC(=O)N1CCN(C(=O)CSc2nnc(-c3cccs3)o2)CC1
  MLL AF4-AF9 inh: -2.9	Calb FLC: -2	RanGTP-Imp inh: -0.1	Beta cell apopt: -6	A1 inh: 0.0	LANA-H2A inh: 3.6	Vif A3G: 8%	T cruzi repl: 2

(list continues)
mol | MLL AF4-AF9 inh | Calb FLC | RanGTP-Imp inh | Beta cell apopt | A1 inh | LANA-H2A inh | Vif A3G | T cruzi repl
COc1ccc(CN(C)C(=O)COC(=O)c2c(C)nn(-c3ccc(F)cc3)c2Cl)cc1 | 0.2 | . | . | -1 | -0.6 | -0.7 | 5% | .
O=C(CN(CCN1CCOCC1)C(=O)Cn1nnc(-c2ccc(F)cc2)n1)NC1CCCCC1 | . | 10 | 1.2 | . | -0.7 | 1.3 | 3% | -5
Cc1nc2nc(C)c(NS(=O)(=O)c3ccc4c(c3)CCCC4)c(=O)n2[nH]1 | -3.4 | -5 | 2.1 | -7 | -0.5 | -0.8 | . | -14
O=C(NNC(=O)C1CC1)c1cc2cc3ccccc3nc2s1 | -11 | -11 | -2.0 | 2 | -0.9 | 1.7 | -7% | 4
CCOC(=O)c1[nH]c2ccc(OC)cc2c1NS(=O)(=O)c1ccc(OC)cc1OC | . | 6 | -0.3 | -10 | 0.3 | 0.0 | -8% | 6
O=C(COC(=O)c1ccccc1NC(=O)c1ccccc1)c1cccc([N+](=O)[O-])c1 | . | 10 | -1.3 | -7 | -4.4 | -6.0 | 27% | -6
CCOc1ccc(S(=O)(=O)Nc2cc(Sc3ncn[nH]3)c3oc(=O)sc3c2)cc1 | . | 13 | -1.7 | 47 | 0.3 | -3.1 | 25% | 9
CCn1c2c(c3cc(OCC(C)C)ccc31)CCCC2=O | -38 | -4 | 1.2 | -1 | 2.8 | -2.5 | -5% | 39
COCCNC(=O)C1CC2Cn3c(nc4ccccc43)C2N1C (stereo not given) | . | 26 | -0.9 | -7 | -2.2 | -8.7 | 3% | -4
CC(Sc1nnc(-c2ccccc2)c(-c2ccccc2)n1)C(=O)NCC1CCCO1 (stereo not given) | 5.5 | . | . | -1 | 0.5 | 1.9 | 13% | .
O=C(/C=C/c1ccco1)NC(=S)Nc1ccc(N2CCCC2)cc1 | . | 2 | 4.3 | -2 | 1.7 | -0.9 | . | -11
Cc1cccnc1NC(=O)c1ccc(Br)o1 | -4.7 | -3 | -2.8 | -1 | 0.0 | 0.5 | . | -3
COc1ccc(C(=O)OCC(=O)N2CCCC2=O)c(OC)c1 | -1.5 | 38 | 5.1 | 5 | -3.4 | -4.3 | -2% | -11
CC1CCCCN1S(=O)(=O)c1ccc(S(=O)(=O)N2CCN(c3ccc(F)cc3)CC2)cc1 (stereo not given) | . | -1 | 4.4 | 1 | -0.7 | 3.5 | 1%&-3% | -7
Cc1sc2ncnc(OCC(=O)N3CCN(S(=O)(=O)c4ccc(Cl)cc4)CC3)c2c1C | . | -4 | 0.9 | -3 | 0.9 | 5.9 | 73% | 11
Cc1nc(=O)cc(-c2ccccc2)n1-c1ccccc1 | 0.2 | -6 | -3.8 | 2 | 0.6 | -2.2 | 16% | -5
O=C(COC(=O)CCc1ccccc1)NC1CCS(=O)(=O)C1 (stereo not given) | 0.9 | -11 | 3.2 | -4 | -0.1 | -5.2 | -2% | -5
CCCCCOc1ccc(CSCCNC(=S)Nc2ccccc2)cc1 | . | -3 | 3.0 | 47 | -0.3 | 1.6 | . | 51
COc1cc2c(cc1OC)C(C(=O)Nc1cc(OC)c(OC)c(OC)c1)C(c1cccnc1)N(C)C2=O (stereo not given) | -1.6 | -11 | -1.4 | -3 | 0.1 | 4.1 | 13% | 6
COc1ccc(N(CC(=O)N/N=C/c2ccc(F)cc2)S(=O)(=O)c2ccccc2)cc1 | 5.4 | 1 | -7.2 | -6 | 2.5 | -0.4 | 9% | 6
CN(C(=O)c1ccc(NC(=O)Cc2ccc([N+](=O)[O-])cc2)cc1)C1CC1 | 3.9 | . | . | 2 | -2.4 | 3.3 | . | .
Cc1cc(NC(=O)CCN2CCN(C/C=C/c3ccccc3)CC2)ccc1Br | 12 | 2 | 1.8 | 26 | -0.4 | 2.0 | . | 50
C=CC[C@@H](CC(=O)N(CCO)Cc1ccccc1)C(=O)N[C@@H](COC(=O)[C@@H](CC=C)Cc1ccc(F)cc1)Cc1c[nH]c2ccccc12 | 3.3 | . | . | -7 | 1.1 | -2.5 | . | .
COC(=O)c1sccc1NC(=O)Nc1cccc(F)c1 | -4.9 | 5 | 3.8 | 0 | -10 | -5.2 | -9% | -7
CC1CC2(C)CC(C)C1(COC(=O)Nc1ccccc1)CO2 (stereo not given) | -1.3 | -4 | 1.5 | 1 | -1.5 | -4.4 | . | 19
CNc1nc2cccnc2s1 | -3.2 | 0 | 0.8 | -4 | 1.1 | -9.2 | . | -9
CC(Sc1nnnn1C)C(=O)Nc1ccc(Oc2ccccc2)cc1 (stereo not given) | . | -2 | -1.7 | 0 | -0.9 | 1.9 | -5% | 19
C=CCn1c(SCC(=O)N2CCc3ccccc3C2)nc2sc(CC)cc2c1=O | . | -1 | 1.8 | 17 | -1.2 | 3.6 | . | 14
O=c1c2sccc2[nH]c(=S)n1-c1ccccc1 | -5.5 | 24 | -3.6 | -12 | -0.5 | 1.6 | 2% | -10
Cc1ccc(C(=O)N2CCN(c3ccc(NC(=O)c4ccc5c(c4)OCCO5)cc3)CC2)cc1 | 2.7 | -3 | -0.4 | 44 | -0.1 | -7.4 | . | 26
COc1ccccc1-c1c(C)nn2c(N)c(-c3ccc(Cl)cc3)cnc12 | -3.6 | 3 | -1.5 | -2 | 1.1 | 4.4 | -4% | 17
COCCCN(C(=O)CC1OC(=O)c2ccccc21)c1c(N)n(Cc2ccccc2)c(=O)[nH]c1=O (stereo not given) | -1.1 | 4 | -3.1 | -2 | -0.1 | 7.6 | . | -1
COc1ccc(CC(=O)N/N=C/c2ccc(C)s2)cc1 | 0.9 | -10 | -4.3 | . | 1.0 | 6.6 | . | -2
O=C(COC(=O)CCC(=O)c1cccs1)NCc1cccs1 | -9.4 | -9 | 5.1 | 2 | -0.4 | -2.1 | . | -4

Rows are unselected; about 4.3% have a hit in one of these screens.
